ClpP mod – qHTS Assay for Activators of ClpP. hit rate 1.9% among 340,000. AID 651965, 2013. Potency, µM (top dose mostly 57.5 µM), inactives show at the highest dose activity change, negative = active. purified B. subtilis ClpP, FRET peptide cleavage, 20 min. ATP-dependent Clp protease proteolytic subunit (Bacillus subtilis (strain 168)), P80244; active = well fitted falling curve with a large enough effect; inconclusive = small, poorly fitted or top-dose-only effect; inactive = no such curve, though single readings can be large or run the other way; also: potency is read from the fitted curve at half-maximal effect; the source files actives as falling curves though it sought activators and does not explain the sign; nearly all actives have a fitted effect of over 65% in size; many hits overshoot -100%
Target sequence (P80244 whole entry, looked up): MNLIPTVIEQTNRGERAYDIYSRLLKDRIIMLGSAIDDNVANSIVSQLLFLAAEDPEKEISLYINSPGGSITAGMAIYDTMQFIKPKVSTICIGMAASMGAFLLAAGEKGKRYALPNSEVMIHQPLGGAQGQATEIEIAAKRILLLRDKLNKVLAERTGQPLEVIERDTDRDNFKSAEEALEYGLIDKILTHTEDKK
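Buffer: 100 mM Tris/HCl pH8, 100 mM KCl, 0.05% low protease BSA, 2.5% glycerol, 0.01% Tween-20. ClpP 10 microg/mL final; 20 min RT; delta FRET normalized to ADEP and DMSO controls.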
Menin MLL FP FL – inhibitors of human menin-MLL interaction, wild-type MLL peptide; Fluorescence polarization, fluorescein-MLL peptide displacement from menin; FP activity change, % at 61.4 µM; 290,000 tested, under 10 active; inconclusive = falling polarisation curve, or a change in total fluorescence; inactive = total fluorescence flat and polarisation flat or rising; no compound was filed as active; the % refers to the polarisation; negative = inhibition;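 also: % of control where 0% means no effect; inhibitors lower the polarisation; unlabelled MLL peptide was the positive control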
gsp antag – gsp mutant antagonism. gsp-mutant cells, cAMP HTRF, 30 min; control for the full effect not named in the record. Potency, µM (series often up to 76.9 µM), without a hit: at the highest dose activity change, negative = inhibition, most hits filed as inhibitors. hit rate 0.4% among 340,000. AID 624288; active = falling curve of any shape with a large fitted effect; inconclusive = falling curve, mostly with a smaller effect; inactive = flat or rising curve; cell line not stated here;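 also: intracellular cAMP measured with PDE inhibitor Ro 20-1724 present during compound exposure; potency is read from the fitted curve at half-maximal effect; % is scaled to controls: 0 for no effect and ±100 for the full control effect; nearly all actives have a fitted effect of over 65% in size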
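G418-selected cells were plated in DMEM/10% FBS for 16-24 h at 37C, then treated with compounds plus the PDE inhibitor […] (300 uM solution added) for 30 min at 37C. Intracellular cAMP was measured by HTRF after 30 min lysis at room temperature.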
gsp agonist – activates gsp, the McCune-Albright syndrome mutation; Potency, µM (top dose mostly 76.9 µM), for the others: at the top dose activation (cAMP increase), usual class: activators; hit rate 0.13% among 340,000; gsp mutant cells, cAMP HTRF, 30 min; control for the full effect not named in the record; active = well fitted activation curve with a large enough effect; inconclusive = small, poorly fitted or top-dose-only effect, or another doubt; inactive = no such curve, though single readings can be large or run the other way; cell line not stated here;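 also: phosphodiesterase inhibitor Ro 20-1724 added with compounds to block cAMP breakdown; potency is read from the fitted curve at half-maximal effect; nearly all actives have a fitted effect of over 60% in size; about a fifth of the inactives were tested at one dose only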
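Cells stably selected in G418 were plated at 2000/well, grown 16-24 hr, then given compounds in DMSO with the PDE inhibitor […] (300 uM solution added) for 30 min at 37C; cAMP was read by HTRF.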
TRPML1 ag – agonists of human TRPML1 channel. hit rate 0.12% among 410,000. Q9GZU1. TRPML1-expressing cells, Ca2+ dye fluorescence, FDSS; host cell line not named in the record; reference of the full effect not given here. activation, % (concentration not given with the values). AID 624414; in the data active = activation above about 50%; inconclusive = about 30% to 50%; inactive = below about 30%; also: 0% is about no effect; the text of the record puts the active cut at 80%
Target sequence (Q9GZU1 whole entry, looked up): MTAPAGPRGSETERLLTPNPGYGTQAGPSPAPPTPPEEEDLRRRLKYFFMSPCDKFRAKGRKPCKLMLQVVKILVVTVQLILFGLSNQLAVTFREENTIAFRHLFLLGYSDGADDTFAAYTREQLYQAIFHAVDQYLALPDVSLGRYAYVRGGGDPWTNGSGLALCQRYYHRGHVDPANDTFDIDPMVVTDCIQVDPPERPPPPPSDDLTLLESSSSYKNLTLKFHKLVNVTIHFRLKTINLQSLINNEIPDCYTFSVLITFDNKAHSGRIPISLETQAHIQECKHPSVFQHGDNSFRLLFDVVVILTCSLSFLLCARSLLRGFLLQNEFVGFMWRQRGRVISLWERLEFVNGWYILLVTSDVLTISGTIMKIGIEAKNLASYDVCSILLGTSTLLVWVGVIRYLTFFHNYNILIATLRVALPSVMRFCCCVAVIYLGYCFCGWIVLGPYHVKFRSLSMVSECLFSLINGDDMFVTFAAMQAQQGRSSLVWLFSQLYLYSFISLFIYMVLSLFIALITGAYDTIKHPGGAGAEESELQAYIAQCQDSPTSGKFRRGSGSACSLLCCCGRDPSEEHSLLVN
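Cells: TRPML1-DL, 1X Tet inducer, ~16 h at 37 degrees C/5% CO2. Dye: ABD Ca8 no-wash + quencher, 45-90 min RT. Read: 10 s baseline, compound add, 110 s agonist phase; 54-4 EC80 (4uM final), 110 s antagonist phase.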
TRPML1 inh – human mucolipin-1 channel inhibition; hit rate 0.02% among 390,000; TRPML1-inducible cells, Ca2+ dye fluorescence, FDSS; hits give low values; inhibition of EC80 agonist-evoked calcium signal; activity change, negative = inhibition, % (concentration not given with the values); Q9GZU1; in the data active means activity change below about -50%; inconclusive means about -30% to -50%; inactive means above about -30%;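 also: stimulus is agonist 54-4 at its EC80 concentration; % is scaled to controls: 0 for no effect and ±100 for the full control effect; compound concentration not given in the record; the text of the record puts the active cut at -80%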
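Calcium fluorescence in TRPML1-DL cells induced overnight with Tet: a 110 s read after compound pin addition, then a 110 s antagonist read after challenge with 54-4 at 4 uM final (EC80).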
Starred values were filed as active, the others as inactive; ? = inconclusive; . = no result given; & = joins results of further samples; [ ] = remark or other dose. Not a hit list. About 2.1% of those tested had a hit in this group.

SMILES | ClpP mod | Menin MLL FP FL | gsp antag | gsp agonist | TRPML1 ag | TRPML1 inh
CCOC(=O)c1cccnc1SCC(=O)NC(C)CC (stereo not drawn) | -5.2% | 0.4 | -4.3% | 13.4% | 1.8 | 22.9
CC1(C)CC(=O)C=C(NNC(=O)c2ccc(N)cc2)C1 | 0.3% | 3.6 | -23.2% | -10.6% | 0.5 | -1.3
COC(=O)c1c(C)[nH]c(C(=O)C(C)OC(=O)c2ccco2)c1C (stereo not drawn) | 0.9% | . | -16.5% | -43.7%[inhibitor] | -0.6 | -1.0
CCC(=O)NCCSc1c[nH]c2ccccc12 | -9.1% | 0.4 | 16.0% | 0.6% | -0.8 | -29.0
CC(=O)N1C(C)(C)CC(=NOC(=O)c2ccc(C)cc2)CC1(C)C | . | 1.8 | 6.3% | -1.7%[15.4 µM] | -0.4 | 6.4
CCOc1ccc(/C=N/NC(=O)c2ccncc2)cc1OC | -1.2% | . | . | 4.3% | -0.3 | -3.9
Cn1c(=O)c(=O)n(C)c2cc(S(=O)(=O)Nc3ccc4c(c3)OCCO4)ccc21 | 1.0% | 4.7 | -6.9% | -0.5% | 1.7 | 23.8
O=C(COC(=O)CCSc1ccccc1)NCc1ccc(F)cc1 | . | -1.4 | 13.1% | -8.2%[15.4 µM] | 2.5 | 13.9
Cc1ccc(NC(=O)C2CCCN(S(=O)(=O)c3cccc4nsnc34)C2)cc1C (stereo not drawn) | 0.9% | . | . | . | -0.3 | 6.6
CC(C)(C)[C@@H]1CCC(=O)N(CC[C@H](N=[N+]=[N-])c2ccccc2)CC1 | 0.6%&0.1% | 4.2 | -17.5% | . | 0.7&1.1 | 1.1
CC#CCN1C(=O)N[C@@H](c2ccccc2)C(C(=O)OC)=C1C | -0.5% | -6.7[11.7 µM] | 3.6% | -0.3% | -0.6 | 1.7
CCc1ccccc1Nc1cc(C(=O)NCCc2ccccc2)c2ccccc2n1 | ? | . | . | . | 3.0 | 7.2
CCc1ccc(NC(=O)c2ccc(F)c(S(=O)(=O)NCC3COc4ccccc4O3)c2)cc1 (stereo not drawn) | -3.6% | 2.4 | -20.6% | 1.7% | 2.2 | -4.2
CCCCNC(=O)c1ccc(SCC(=O)N(CC)CC)c([N+](=O)[O-])c1 | -1.8% | 1.8 | 1.3% | -5.0%[15.4 µM] | 0.7 | 2.0
CCOC(=O)C1CCCN(C(=O)CSc2nccn2C)C1 (stereo not drawn) | -1.1% | -0.2 | 3.2% | -30.1%[inhibitor] | 0.3 | -10.7
COc1ccc(NC(=O)CSC2=Nc3ccccc3N=C(c3ccc(F)cc3)C2)cc1OC | 0.8% | . | . | . | 0.0 | -7.6
O=c1cc(N2CCN(c3ccccc3F)CC2)[nH]c(=O)n1-c1ccc(Br)cc1 | -3.2% | 3.3 | -1.9% | 6.1% | -1.3 | 10.5
CCc1sc(C(=O)Nc2nccs2)cc1C | . | 1.8 | 8.7% | -33.6%[inhibitor] | 0.4 | ?
O=[N+]([O-])c1ccc(Cc2ccncc2)cc1 | . | -2.9 | 3.9% | -3.3%[15.4 µM] | 0.9 | 7.6
CC(C)[C@H](NC(=O)c1cccc(CN(Cc2ccccc2)C(=O)/C=C/c2ccccc2)c1)C(=O)O | . | . | -5.5% | -0.3%[15.4 µM] | 0.3 | -6.6
CC(C)N(C#N)c1nc(N2CCOCC2)nc(N2CCOCC2)n1 | 2.1% | -0.7 | -6.5% | 0.3% | 2.4 | 12.3
COc1ccc(CNC(=O)Cn2c(=O)cc(C)c3c(C)nn(-c4cccc(Cl)c4C)c32)cc1 | -0.5% | . | . | . | -0.3 | 10.5
CCc1nc(N)c(C#N)c(-c2ccc(F)cc2)c1C | 28.2µM* | 4.2 | -0.9% | ? | -0.8 | -21.1
Cc1ccc(CNC(=O)CN2C(=O)C3(OCCCO3)c3ccccc32)cc1 | 0.4% | 2.2 | 1.0% | -31.5%[inhibitor] | 0.3 | -9.4
COc1ccc(/C=C/C(=O)c2ccc(NC3=NCCCS3)cc2)cc1OC | . | -1.1 | -18.1% | 14.3%[15.4 µM] | 0.9 | -10.9

Carrying on.
SMILES | ClpP mod | Menin MLL FP FL | gsp antag | gsp agonist | TRPML1 ag | TRPML1 inh
COc1ccc(NC(=O)c2ccccc2N2C(=O)C3C4C=CC(C5CC45)C3C2=O)c(OC)c1 (stereo not drawn) | -2.2% | 0.1 | 8.3% | 6.4% | 0.5 | -4.6
O=C(CSc1nnc(CNc2ccccc2)o1)N1CCN(C(=O)c2ccco2)CC1 | -1.4% | -0.2 | 6.2% | 14.5% | 0.3 | 18.9
CCOC(=O)C1C(c2cccs2)NC(=O)NC1(O)C(F)(F)F (stereo not drawn) | 0.2% | 2.1 | 3.9% | 29.5% | 0.8 | -12.1
COc1cccc(CC(=O)NCCCSc2ccccc2)c1 | 1.4% | 3.8 | 2.2% | -38.4%[inhibitor] | 1.4 | -6.5
CCn1c(=O)c2cc(C(=O)N(CCCOC(C)C)Cc3ccco3)sc2c2ccccc21 | 3.8% | . | . | . | 3.6 | 37.8
COc1cc2oc3ccccc3c2cc1N(CC(=O)N(C)C)S(=O)(=O)c1ccccc1 | 0.7% | 2.9 | ? | 3.4% | 0.5 | -0.3
O=C(NNC(=S)NCc1ccc(Cl)cc1)c1ccc2c(c1)OCO2 | 6.7% | 4.1 | -1.0% | 3.9% | 0.0 | 5.2
COCCCn1c(SCC(=O)N2CCOCC2)nnc1-c1ccco1 | . | 2.2 | 5.5% | -8.3% | -0.2 | -16.1
COc1ccc(Oc2nc(C)cc(C)c2S(C)(=O)=O)cc1 | 0.7% | -0.5 | 12.3% | -9.3% | 0.2 | -2.4
COc1ccc(/C=C(/NC(=O)c2ccco2)C(=O)N2CCCCC2)cc1 | 14.1µM* | 2.2 | 0.7% | -20.7% | -0.4 | 11.1
NC(=NC1CCCCC1)c1ccc([N+](=O)[O-])cc1 | 0.9% | 2.8 | 6.0% | 0.0% | -0.8 | -1.6
Cc1ccc(S(=O)(=O)NC(Cc2ccccc2)C(=O)NN)cc1 (stereo not drawn) | 1.0% | -8.0 | 0.5% | -7.2%[15.4 µM] | -0.5 | 13.7
COc1ccc(NS(=O)(=O)c2cccc(C(=O)NNC(=O)c3cc(S(N)(=O)=O)ccc3OC)c2)cc1 | . | . | 5.5% | -8.6%[15.4 µM] | -0.4 | 10.6
CC(C)P(=O)(c1cccc(C(=O)O)c1)C(C)C | -4.1% | 4.2 | 14.1% | -17.6% | 0.2 | 3.0
CSc1ncc(C(=O)Nc2ccc(C(C)=O)cc2)c(-c2ccccc2)n1 | -4.0%&10.8% | -0.2 | -25.6% | 23.3% | 1.4&1.8 | -7.9&-7.0
CC(CCN1CCC(CN2C(=S)NCC2Cc2ccccc2)CC1)c1ccccc1 (stereo not drawn) | -2.0% | . | 6.3% | . | -0.5 | -6.9
Cc1ccccc1NC(=O)N1CCCC1C(=O)NCc1cccs1 (stereo not drawn) | -2.8% | 2.4 | 3.6% | ? | -0.3 | -15.6
O=C(Nc1ccc(Cl)c(S(=O)(=O)N2CCCCC2)c1)c1cccnc1 | -1.0% | . | -7.1% | 1.1% | 2.5 | 5.2
CCOc1ccc2ncc3c(-c4ccccc4)nn(CC(=O)Nc4cccc(F)c4)c3c2c1 | -0.7% | . | . | . | 0.3 | 32.7
COC(=O)C(C)NC(=O)C(C)NC(=O)OCc1ccccc1 (stereo not drawn) | ? | 2.4 | 1.1% | -25.8% | -0.3 | -3.7
O=C(NCC1CCCO1)c1ccc(Oc2ccc([N+](=O)[O-])cc2Cl)cc1 (stereo not drawn) | -1.9% | -3.0 | -0.2% | -36.8%[inhibitor] | -0.1 | -3.1
CS(=O)(=O)N1CCN(c2nc(-c3ccccc3)cs2)CC1 | -0.5% | 4.0 | -9.0% | -16.2% | -1.4 | 6.0
C=CCN1c2ccccc2[C@]23C[C@@H](C(=O)OC)N(C(=O)c4ccco4)C2=NC(C(=O)OC)=C(C(=O)OC)[C@H]13 | -1.1% | -2.8[11.7 µM] | -14.9% | . | 0.7 | 15.4
CCc1ccc2oc(C(=O)N3CCN(C)CC3)cc(=O)c2c1 | -9.9% | 0.5 | 8.5% | -12.8% | 0.0 | 1.5
COc1ccccc1CNC(=O)Cc1c(C)c2c(cc(C)c3c(C)c(C)oc32)oc1=O | ? | . | . | . | -0.4 | 18.0

Next structures follow:
SMILES | ClpP mod | Menin MLL FP FL | gsp antag | gsp agonist | TRPML1 ag | TRPML1 inh
CC(=O)c1ccc[n+](CC(=O)NC(C)c2ccccc2)c1 (stereo not drawn) | . | -4.8 | 1.4% | 9.4% | -0.3 | -4.3
CC(=O)Nc1ccc(C(=O)N/C(=C/c2ccccc2)C(=O)NCc2ccco2)cc1 | -0.9% | -0.4 | -0.2% | 20.0%[15.4 µM] | -0.3 | -6.3
CCc1noc(C)c1C(=O)NCCc1ccc(S(N)(=O)=O)cc1 | . | . | 16.6% | -2.6%[15.4 µM] | -0.3 | -15.2
CC1CN(C(=O)COC(=O)c2cc(S(N)(=O)=O)c(Cl)cc2Cl)CC(C)O1 (stereo not drawn) | -1.0% | -3.5 | -3.9% | -19.2% | 0.8 | -2.9
O=C1c2ccccc2C(=O)N1Cc1cc(-c2ccccc2)no1 | -0.5% | 1.4 | 19.3% | -60.8%[inhibitor] | 1.5 | 7.7
CCCCOCCCNC(=O)Cc1ccccc1OC | -0.3% | 3.3 | -3.3% | 16.0% | 0.0 | 11.5
Nc1nc(N)c2c(ccc3nccc32)[nH]1 | 3.9% | -0.8 | 13.4% | 27.2% | 0.5 | -13.3
COc1ccc(/C=C/c2nc(C#N)c(NCCc3ccc(OC)c(OC)c3)o2)cc1OC | 4.5% | . | . | . | 1.6 | 14.1
Cc1ccc(C(=O)CN(CCC(=O)O)C(=O)c2ccncc2)cc1 | 1.8% | . | 11.8% | ? | -0.3 | 11.1
COc1cccc(C(=O)CC(=O)C(=O)Nc2ccc(C)cc2Cl)c1 | . | 3.4 | -3.0% | 7.4% | 1.2 | -2.7
COc1cc(/C=N/NC(=O)c2cccc(C(=O)N/N=C/c3ccc(O)c(OC)c3)n2)ccc1O | 2.8% | 4.4 | -4.2% | -12.6%[15.4 µM] | -1.2 | 10.9
CC(C)CC(=O)n1nc(-c2cccnc2)nc1NCc1ccc(F)cc1 | -0.2% | . | . | . | 3.8 | 62.7
O=C(O)COc1ccc(C(=O)c2ccccc2)cc1 | 0.2% | -0.6 | 8.2% | -2.1% | -0.3 | 6.9
Cc1cccc(C)c1NC(=O)COC(=O)C1C2CC3OC(=O)C1C3C2 (stereo not drawn) | . | -3.3 | 17.9% | -7.9%[15.4 µM] | 0.1 | -9.1
OC(C1=CC(=Cc2ccncc2)c2ccccc21)c1ccncc1 (stereo not drawn) | . | . | ? | -5.7% | 0.4 | -2.9
